rRNA inh HTS = inhibitors of bacterial rRNA selective over humanized ribosomes; 350,000 compounds, 1.6% hits; GFP signal change (wild-type ribosome), % (concentration not given with the values); E. coli WT GFP vs humanized-ribosome RFP mutants, fluorescence, 24 h; stronger effect = lower value; DMSO median 0, no signal -100;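 active = significant combined selectivity score with lowered wild-type GFP, culture density cut under 30%, mutant RFP and density less affected; inactive = any of these conditions unmet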; also: one replicate is shown; some compounds called inactive have numbers as strong as hits
Beta apoptosis = blocks beta cell apoptosis; protection from apoptosis, % (concentration not given with the values); 300,000 compounds, 0.8% hits; INS-1E cytokine-induced death, ATP luminescence, 48 h; percent of positive-control rescue, neutral wells zero;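 active = all replicates at 75% or more, or half of them and the mean; inconclusive = half reach 75% but not the mean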;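 also: 0% = cytokine-treated negative control wells and 100% = positive control rescue; higher means more ATP so stronger rescue from cytokine killing; wells of about 40 µL received 100 nL stock; the first replicate is given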
Ecoli growth = inhibitors of Escherichia coli growth; OD600, 23 h; stronger effect = lower value; OD600 absorbance (no concentration beside the values); 330,000 compounds, 0.21% hits; AID 1053175;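 active = OD600 absorbance below the run mean of sample wells minus 3.6 SD, in any replicate, cut at about 0.56 in these data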;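 also: stock transfer was 300 nL into about 60 µL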
UCH37 DUB inh = inhibitors of human deubiquitinating enzyme UCH37; Q9Y5K5; purified proteasome/UCH37, Ub-AMC cleavage fluorescence; inhibition, % (no concentration beside the values); 330,000 compounds, 0.33% hits;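 active = mean of two replicates above 20%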;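 also: 0% = compound-free wells with enzyme and 100% = wells lacking proteasome; stock transfer was 100 nL into about 20 µL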
Target sequence (Q9Y5K5 whole entry, looked up): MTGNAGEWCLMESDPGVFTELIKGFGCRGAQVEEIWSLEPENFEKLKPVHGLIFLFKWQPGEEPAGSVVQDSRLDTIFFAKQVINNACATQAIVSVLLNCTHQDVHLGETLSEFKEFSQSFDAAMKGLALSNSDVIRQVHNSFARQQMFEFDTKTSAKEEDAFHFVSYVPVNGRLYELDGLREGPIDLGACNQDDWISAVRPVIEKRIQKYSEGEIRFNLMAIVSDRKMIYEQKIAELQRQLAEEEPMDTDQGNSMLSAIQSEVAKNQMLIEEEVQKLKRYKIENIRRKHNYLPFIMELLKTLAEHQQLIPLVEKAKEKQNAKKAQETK
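System: Proteasome-associated human UCH37 deubiquitinase; Input: 0.15 nM proteasome in added enzyme buffer; Also added: Ub-AMC substrate from 1 µM stock; Incubation: 30 min compound-proteasome preincubation then 25 min substrate reaction, room temperature; Detection: fluorescence, ex 355 nm, em 460 nm; Read-out: % inhibition of Ub-AMC cleavage fluorescence; Benchmarks: no-proteasome and no-compound wells.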
A1 inh = inhibitors of the anti-apoptotic protein A1, read as caspase activation | MEF A1-2A-BIM cells, Caspase-Glo 3/7 luminescence, 3 h; percent of clofoctol response, vehicle zero | AID 2462 | caspase activation, % (test concentration not listed) | 330,000 compounds, 0.066% hits;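 active = over half of replicate activation scores above 10%, or exactly half above 10 with the replicate mean above 10; inconclusive = replicate mean below 10 yet half the replicates above 10; inactive = over half of replicates below 10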;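 also: wells of about 30 µL received 50 nL stock; many hits fall short of the cut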
FGF22 binding = FGF22 (human) thermal shift binding. Q9HCT0. recombinant FGF22 thermal shift, SYPRO orange fluorescence; percent of sucrose octasulfate shift, DMSO zero. calls only at 9.99 µM. 340,000 compounds, 1.5% hits;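 active = melting point raised past a set limit in the mean and every replicate; inconclusive = no clear call; three in four hits are not shown here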
Target sequence (Q9HCT0 whole entry, looked up): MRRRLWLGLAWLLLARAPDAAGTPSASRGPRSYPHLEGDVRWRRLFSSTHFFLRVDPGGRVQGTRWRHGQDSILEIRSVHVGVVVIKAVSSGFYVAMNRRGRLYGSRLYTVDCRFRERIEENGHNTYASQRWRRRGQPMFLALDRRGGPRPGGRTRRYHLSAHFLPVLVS
T cruzi repl = T. cruzi replication inhibition; T. cruzi beta-gal in NIH3T3, luminescence, 90 h; 300,000 compounds, 1.4% hits; inhibition, % (concentration not given with the values);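 active = mean inhibition across valid replicates above about 55%, limit read from the data; inconclusive = mean below that limit but half or more replicates reach it; inactive = mean below it, under half of replicates reach it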;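 also: signal also drops with host cell toxicity which is not excluded here; 0% = plate median of DMSO wells and 100% = zero luminescence signal; higher percent means less beta-gal luminescence so fewer parasites; stock transfer was 50 nL into about 50 µL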
AF4-AF9 inh = MLL-AF4/AF9 protein interaction inhibition. P42568. AlphaScreen, biotin-AF4 peptide binding to FLAG-AF9. inhibition, % at 10 µM. 350,000 compounds, 0.47% hits. AID 651704;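 active = every replicate reaching a set inhibition limit, whatever the replicate mean, cut at about 25% in these data; inconclusive = mean inhibition reaches that limit but some replicates miss it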;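 also: 0% = plate neutral control median and 100% = total signal loss; the record names both 10 and 1 µM as test concentration; the first replicate is given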
Target sequence (P42568 whole entry, looked up): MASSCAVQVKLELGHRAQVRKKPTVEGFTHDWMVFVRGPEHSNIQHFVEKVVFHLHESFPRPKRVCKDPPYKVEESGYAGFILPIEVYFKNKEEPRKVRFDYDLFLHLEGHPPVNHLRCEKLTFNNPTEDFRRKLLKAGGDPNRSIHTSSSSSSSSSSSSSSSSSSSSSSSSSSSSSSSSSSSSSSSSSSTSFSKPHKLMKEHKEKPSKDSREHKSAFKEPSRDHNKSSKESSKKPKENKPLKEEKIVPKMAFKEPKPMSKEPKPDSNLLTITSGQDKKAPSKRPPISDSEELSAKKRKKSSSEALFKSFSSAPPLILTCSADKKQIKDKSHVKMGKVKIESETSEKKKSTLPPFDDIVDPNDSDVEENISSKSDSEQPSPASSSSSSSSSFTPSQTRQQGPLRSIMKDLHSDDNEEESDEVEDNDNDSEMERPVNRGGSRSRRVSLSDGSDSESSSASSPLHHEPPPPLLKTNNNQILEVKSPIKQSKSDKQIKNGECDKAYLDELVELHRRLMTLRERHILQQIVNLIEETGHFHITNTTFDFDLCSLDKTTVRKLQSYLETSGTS
rRNA inh HTS OD600 = further read-out of rRNA inh HTS, marked with its call; OD600 change, %; measured here: OD600 growth;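 optical density of the mix in the first replicate; 0 = DMSO median and -100 = no signal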
rRNA inh HTS RFP = recorded beside rRNA inh HTS, whose call it bears; RFP signal change, %; measured here: RFP humanized mutant strains;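 first replicate; 0 = DMSO median and -100 = no signal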
Active calls of the source: *; i = inactive; ? = inconclusive; nt = no result given. The list is partial, so the mix of outcomes need not match the whole.

SMILES | rRNA inh HTS OD600 | FGF22 binding | T cruzi repl | AF4-AF9 inh | rRNA inh HTS RFP | Beta apoptosis | A1 inh | UCH37 DUB inh | rRNA inh HTS | Ecoli growth
COc1ccc(NC(=O)C2CC(c3cccc(Br)c3)=NO2)cc1OC (centres undefined) | 1 | i | 10 | -2.3 | 0.5 | nt | 0.4 | 4.9 | 4 | 0.66
O=c1c(Cl)c(NCCO)cnn1-c1cccc(Cl)c1 | 6 | i | -34 | -0.2 | -0.7 | -4 | 0.3 | 1.8 | 8 | 0.63
CCCS(=O)(=O)N1CCCC(C(=O)Oc2ccc(C)c(C)c2)C1 (centres undefined) | 10 | i | -14 | 4.9 | 2.7 | 2 | -0.3 | -0.1 | 15 | 0.66
COc1ccc(N(Cc2ccccc2)S(=O)(=O)c2cccc(C(=O)O)c2)cc1 | -10 | i | 2 | 4.4 | -2.5 | 2 | 0.3 | -2.2 | 2 | 0.64
COc1ccc(NC(=O)[C@@H]2CCCN2C(=O)[C@@H]2Cc3ccccc3CN2C(=O)OC(C)(C)C)cc1 | -10 | i | 16 | 2.0 | -1.8 | 3 | 0.1 | 2.4 | -6 | 0.65
O=C(/C=C/Nc1ccccc1)c1cnc(-c2ccccc2)s1 | nt | nt | nt | nt | nt | -9 | -2.0 | -2.9 | nt | 0.77
COCCCNc1nc2nonc2nc1N1CCN(Cc2cccc(C)c2)CC1 | -1 | i | 4 | 2.1 | 3.9 | 3 | -0.4 | nt | -12 | nt
CCOC(=O)c1ccc(NC(=O)N2CCOCC2)cc1 | 2 | i | 6 | -2.8 | 4.6 | -4 | 0.1 | 1.2 | 13 | 0.69
CCOC(=O)N1CCN(S(=O)(=O)c2ccc(C(=O)Nc3sc4c(c3C(=O)OC)CCN(C)C4)cc2)CC1 | 2.9* | i | 38 | 1.6 | 3.2* | nt | 2.9 | -9.4 | -15* | 0.68
Cc1ccc(NC(=O)CN2CCCCCC2)cc1[N+](=O)[O-] | 16 | i | 23 | 3.8 | 1.5 | 2 | -0.2 | 3.1 | 15 | 0.69
CC1CCN(C(c2ccc(N(C)C)cc2)c2nnnn2Cc2ccccc2)CC1 (centres undefined) | nt | nt | 19 | nt | nt | -6 | 0.8 | 0.6 | nt | 0.73
CN(Cc1c(F)cccc1Cl)C(=O)c1cc2ccccc2o1 | -79 | i | -4 | -4.4 | -17 | 99* | 0.1 | 6.5 | -55 | 0.65
Cc1ccc(-c2csc(NC(=O)CSC3=NCCS3)n2)cc1 | nt | nt | -3 | nt | nt | -2 | 0.1 | 5.8 | nt | 0.7
Cc1cc(-c2ccccc2)nc(=O)[nH]1 | nt | nt | -3 | nt | nt | 0 | ? | -4.8 | nt | 0.69
Cn1c(-c2ccc3c(c2)OCO3)cc(=O)c2ccccc21 | -7 | i | 14 | -2.7 | -6.7 | 7 | -0.3 | -35 | -9 | 0.68
CCCCCn1c(=N)c(S(=O)(=O)c2ccc(Br)cc2)cc2c(=O)n3cccc(C)c3nc21 | 17 | i | -3 | 0.8 | 0.6 | 8 | -1.0 | -8.9 | 3 | 0.65
COCCNC(=O)C1CC(=O)N(C2CCCCC2)C1 (centres undefined) | 16 | nt | -2 | nt | -0.8 | 0 | 0.9 | 2.1 | 4 | 0.72
Cc1cc(OCC(=O)NCc2ccccn2)c2c(C)c(C)c(=O)oc2c1 | -1 | i | 6 | 1.0 | 0.3 | -2 | 2.0 | -58 | 6 | 0.67
Cc1cc(C)n(-c2ccc(C(=O)Nc3nnc(C)s3)cc2)n1 | nt | nt | -12 | nt | nt | 1 | -1.3 | 0.7 | nt | 0.71
CCCn1c(N)c(N(CCOC)C(=O)/C=C/c2cccc(Cl)c2)c(=O)[nH]c1=O | 4 | i | -5 | -2.8 | -5.4 | 5 | 0.1 | 3.2 | 6 | 0.69
C[n+]1ccn(CC(=O)c2cc(C(C)(C)C)c(O)c(C(C)(C)C)c2)c1 | -11 | i | -3 | 4.2 | 0.2 | 0 | -1.3 | 4.5 | -7 | 0.71
O=C(NCCCN1CCCCC1)C1(S(=O)(=O)c2ccc(Cl)cc2)CC1 | 8 | i | -10 | -2.9 | -1.8 | -2 | -0.8 | 3.4 | 4 | 0.74
c1ccc(-c2cc(-c3ccccc3)[nH]n2)cc1 | 3 | i | -14 | -2.8 | 2.5 | -5 | -8.4 | 2.4 | -6 | 0.68
CCCc1cc(=O)[nH]c(SCC(=O)Nc2nc3ccc(OCC)cc3s2)n1 | 5 | nt | 6 | -1.3 | 0.8 | -10 | 0.0 | -1.2 | 4 | 0.67
CNS(=O)(=O)c1cc(NC(=O)c2cnc(SC)n2-c2ccccc2)ccc1C | -16* | i | 1 | -4.0 | 2.4* | 2 | 0.8 | 1.9 | -21* | 0.7
CN1C(=O)c2ccccc2C(C(=O)O)C1c1cccc(F)c1 (centres undefined) | nt | nt | -25 | nt | nt | -1 | 0.2 | 1.5 | nt | 0.71
O=C(Nc1ccc(OC(F)(F)F)cc1)C1CCCN(C(=O)c2ccc(Cl)cc2)C1 (centres undefined) | nt | i | nt | -3.7 | nt | 3 | 0.0 | 3.7 | nt | 0.68
CC(C)c1ccc(NC2CCCN(C(=O)c3ccc(Cn4cnnn4)cc3)C2)cc1 (centres undefined) | -12 | i | 16 | 5.1 | -0.1 | -4 | -0.6 | 5.9 | -3 | 0.69
Fc1ccccc1N1CCN(CC2CC3C=CC2C3)CC1 (centres undefined) | nt | nt | 15 | nt | nt | -8 | 0.3 | 2.4 | nt | 0.71
COc1ccccc1N(CC(=O)Nc1ccccc1C)S(C)(=O)=O | -3 | i | -7 | 3.6 | -6.1 | -2 | -0.1 | 2.8 | 0 | 0.62
COc1ccc(C(CNC(=O)c2ccc(Cl)c(NC(=O)c3cccs3)c2)N2CCCC2)cc1 (centres undefined) | -9 | i | 8 | 6.4 | 0.7 | nt | 1.5 | -0.9 | -7 | 0.69
CCCC(=O)Nc1ccc(Nc2ccccc2)cc1 | -4 | i | -6 | 5.2 | -0.5 | -2 | 1.4 | 1.3 | 7 | 0.6
O=C(Nc1nnc(S(=O)(=O)N2CCCCCC2)s1)c1ccccc1 | -1 | i | 1 | -0.8 | 0.7 | 14 | -3.3 | 5.6 | 0 | 0.73
CCCC(CCC)C(=O)Nc1cccc(C(=O)O)c1 | 8 | i | -12 | -47 | -1.6 | 2 | -0.4 | 0.5 | 9 | 0.73
Cc1ccc(NC(=O)CCC(=O)N/N=C/c2coc3ccccc3c2=O)cc1 | 11 | i | -3 | 2.0 | -5.7 | -5 | 0.1 | nt | 12 | nt
CCn1ncc(C2=NOC(C(=O)Nc3cccc(O)c3)C2)c1C (centres undefined) | 8 | i | -6 | -0.9 | -3.0 | 2 | -0.5 | 4.1 | 5 | 0.68
Cc1ccc(Cl)cc1NC(=O)CSc1nncn1-c1ccccn1 | -3 | i | -6 | -2.8 | -1.7 | 0 | -0.9 | 2.4 | -3 | 0.69
N#C/C(=C\c1ccncc1)c1nc2ccccc2c(=O)[nH]1 | 5 | i | 7 | 0.4 | 0.3 | 0 | -0.2 | 4.7 | 11 | 0.69
COC(=O)C1(Cc2ccc(O)cc2)OC(=O)C(O)=C1c1ccc(O)cc1 (centres undefined) | -2 | i | -22 | -0.4 | -0.3 | -4 | -1.4 | 6.4 | -1 | 0.71
Cc1ccc(NC(=O)Cc2noc3ccccc23)c(C)c1 | nt | nt | -7 | nt | nt | 2 | -0.3 | 2.7 | nt | 0.64
CCOC(=O)C1CCCN(Cc2ccc(OC)c(OCc3ccccc3)c2)C1 (centres undefined) | -1 | i | 49 | 2.2 | -2.4 | -2 | -0.2 | -1.6 | 0 | 0.68
O=C(N/N=C/c1ccc(OCC(=O)N2CCCC2)cc1)C(=O)NC1CC1 | 10 | i | -9 | -2.4 | -1.9 | -3 | 1.5 | nt | 8 | nt
Cc1ccc(N(C(=O)CCCC(=O)Nc2ccccn2)C(C(=O)NC2CCCC2)c2ccc(O)cc2)cc1C (centres undefined) | -5 | i | -9 | -2.3 | 7.2 | -8 | -0.6 | 2.0 | 5 | 0.71
CC(C)CCNC(=O)C1c2ccccc2Oc2ccccc21 | 11 | i | 5 | -0.6 | -3.4 | 8 | 0.3 | 0.5 | 26 | 0.7
O=C(CNc1ccccc1F)Nc1cccc2ccccc12 | -6 | i | -8 | -1.2 | 0.7 | 0 | 0.6 | 4.0 | -1 | 0.69
CCOC(=O)CSc1nc2cc(C(=O)NCc3ccco3)ccc2c(=O)n1-c1ccc(F)cc1 | 10 | i | -6 | -16 | -2.4 | nt | 0.0 | 4.3 | 12 | 0.73
CCN(CC)S(=O)(=O)c1ccc(OC)c(NC(=O)c2cccs2)c1 | 13 | i | -1 | -1.8 | 0.8 | -3 | -0.6 | 6.2 | 16 | 0.71
CCOC(=O)Cn1c2[n+](c3ccccc31)CC(O)CS2 (centres undefined) | 7 | i | 0 | -6.5 | -8.7 | 0 | 0.3 | -0.7 | 5 | 0.69
C=C(C)Cn1c(N2CCCC2)nc2c1c(=O)n(C)c(=O)n2C | 11 | i | -10 | -1.3 | -0.8 | -2 | 0.3 | 0.0 | 11 | 0.71
COc1cc2cc(CN(C(=O)NC3CCCCC3)C3CCCC3)c(=O)[nH]c2cc1OC | nt | nt | 10 | nt | nt | 3 | 0.2 | -24 | nt | 0.71
CC(C)(C)c1ccc(C(=O)NCCC(=O)N2CCCC2)cc1 | 7 | i | -11 | 0.8 | -0.2 | 0 | -0.3 | 0.6 | -2 | 0.65
Cc1cccc(OCC(O)CN2CC3(C)CC2CC(C)(C)C3)c1 (centres undefined) | 8 | i | -9 | -0.6 | 3.0 | -1 | 0.4 | 5.2 | 19 | 0.72
O=c1cc(NCc2ccc3c(c2)OCO3)[nH]c(=O)n1-c1ccc(Cl)cc1 | nt | nt | nt | nt | nt | -3 | 1.6 | 2.4 | nt | 0.68
COc1ccc(OC)c(N(CC(=O)N2CCN(c3cc(Cl)ccc3C)CC2)S(C)(=O)=O)c1 | nt | nt | 4 | nt | nt | 0 | -0.7 | 0.6 | nt | 0.62
CC(/C=N/n1c(-c2ccccn2)n[nH]c1=S)=C\c1ccccc1 | 9 | i | -10 | -2.9 | 2.7 | -3 | 0.7 | nt | 7 | nt

Sorted by the number under Ecoli growth (descending): three from the list above.
structure	rRNA inh HTS OD600	FGF22 binding	AF4-AF9 inh	rRNA inh HTS RFP	UCH37 DUB inh	rRNA inh HTS	Ecoli growth
CCCC(CCC)C(=O)Nc1cccc(C(=O)O)c1	8	i	-47	-1.6	0.5	9	0.73
C=C(C)Cn1c(N2CCCC2)nc2c1c(=O)n(C)c(=O)n2C	11	i	-1.3	-0.8	0.0	11	0.71
N#C/C(=C\c1ccncc1)c1nc2ccccc2c(=O)[nH]1	5	i	0.4	0.3	4.7	11	0.69
